# BmaI1: BmaI1 acyl-homoserine lactone synthase inhibition – biochemical, fluorescence intensity, with counterscreen (AID 720554); BmaI1 enzyme assay, fluorescence intensity; stronger effect = higher value; test concentration not given here; a few actives read low; strong numbers were not always called active; inhibition, %; hit rate 0.4% among 12,000;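 active = both replicates within 2 robust z-scores of the inhibited control and a quiet counterscreen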;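 also: 0% = uninhibited enzyme and 100% = inhibited control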
# BmaI1 counterscreen: further read-out of BmaI1, marked with its call; inhibition, %; measured here: counterscreen; design of the counterscreen not given here;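 first of two replicates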
# * marks the source's active call; other numbers are inactive results.
# Sequence of screens – BmaI1 | BmaI1 counterscreen
C=CCN1C(=O)c2ccc(C(=O)OCC(=O)Nc3ccccc3OC)cc2C1=O
  11 | 13
CNCC(=O)N(C)c1c(N)n(Cc2ccccc2)c(=O)[nH]c1=O
  4 | 2
O=C(OCc1nnc(-c2cc3c(s2)CCCC3)o1)c1cccc(CN2C(=O)c3ccccc3C2=O)c1
  12 | 0
NC(=O)NCc1ccco1
  8 | 6
CCOC(=O)c1c(C)[nH]c(C(=O)C(C)C)c1C
  26 | 18
CN1CCCC(n2nc(Cc3ccc(Cl)cc3)c3ccccc3c2=O)CC1 (centres undefined)
  3 | 11
COC(=O)c1c(C)[nH]c(C(=O)OCC(=O)Nc2ccccc2)c1C
  18 | 12
N#CCc1cccc(N)c1
  18 | 10
CC(C)c1nc(-c2c(N)n(C)c(=O)n(C)c2=O)sc1C(=O)C(C)(C)C
  12 | 12
c1csc(-c2noc(CCCN3CCNCC3)n2)c1
  12 | 20
CCOC(=O)c1c(N)sn(-c2ccccc2)c1=S
  17 | 14
CN(C)c1ccc(C(=O)NCCc2ccccc2)cc1
  -6 | -4
O=C(CCCc1nc2ccccc2s1)NC1=NCCS1
  -8 | -6
CC1CC(C)CN(C(=O)COC(=O)/C=C/c2cccc(F)c2)C1 (centres undefined)
  5 | 2
O=C(CN1CCc2ccccc21)Nc1cccc(C(F)(F)F)c1
  43 | 28
CSc1nnc(C)n1Cc1ccccc1
  4 | 4
COc1ccc(OCCN2CCN(S(=O)(=O)c3ccc(Cl)s3)CC2)cc1
  14 | 16
C/C(=N\OCC(=O)N1c2ccccc2CC1C)c1cc2ccccc2o1 (centres undefined)
  20 | 10
Cc1cc(COC(=O)c2cn(C)c3ccccc23)no1
  7 | 7
CN(C)C(CNC(=O)c1n[nH]c2ccccc12)c1cccs1 (centres undefined)
  8 | 8

# Compound profiles, from the list above. Order of values: BmaI1 | BmaI1 counterscreen
# `O=C(OCc1nnc(-c2cc3c(s2)CCCC3)o1)c1cccc(CN2C(=O)c3ccccc3C2=O)c1` reads 12 | 0
# `CC1CC(C)CN(C(=O)COC(=O)/C=C/c2cccc(F)c2)C1` (centres undefined) reads 5 | 2

# Further entries follow:
# Sequence of screens – BmaI1 | BmaI1 counterscreen
O=C(N/N=C1/CC(c2ccccc2)Oc2ccccc21)C1CC1 (centres undefined)
  16 | 11
O=C(CCC(=O)c1cccs1)Nc1ccc2c(c1)OCO2
  -4 | -3
CCN(CC(=O)Nc1cc(C)on1)c1cccc2ccccc12
  2 | 0
CC1(C)C(=O)Nc2ccccc2N1C(=O)COC(=O)COc1ccccc1
  21 | 6
Cc1ccccc1Nc1nnc(SC(C)C(=O)N(C)c2ccccc2)s1 (centres undefined)
  15 | 5
O=C(Nc1cccc(Br)c1)C1CCC1
  -8 | -4
CCC(CO)NCCNC(CC)CO (centres undefined)
  -10 | -4
C=CCn1c(C)cc(C(=O)CSc2nnc(-c3ccccc3)n2CC)c1C
  8 | 0
Cc1ccc(NC(=O)COc2ccccc2C(N)=O)cc1F
  12 | 16
Cc1nn(C2CCS(=O)(=O)C2)c2nc(C3CC3)cc(C(=O)O)c12 (centres undefined)
  0 | -2
COCCn1cnnc1SCC(=O)c1ccc(S(=O)(=O)N2CCCC2)cc1
  19 | 12
O=C(CN1C(=O)c2ccccc2S1(=O)=O)N1N=C(c2ccc(Cl)cc2)CC1c1ccco1 (centres undefined)
  15 | 10
N#Cc1c(-c2ccco2)c2c([nH]c1=S)CCC2
  100 | 40
O=C1c2ccccc2-c2nn(C(=O)c3cc4c(s3)CCC4)c3cccc1c23
  4 | 0
N#C/C(=C\c1ccc(-c2cc(C(F)(F)F)ccc2Cl)o1)C(=O)O
  46 | 1
Cc1csc(=O)n1CC(=O)O
  9 | 6
CN1[C@@H](CC(=O)c2ccccc2)CCC[C@H]1C[C@H](O)c1ccccc1
  2 | 2
Cc1ccc(C(c2c(O)ccc3ccccc23)N2CCOCC2)o1 (centres undefined)
  36 | 38
O=c1[nH]c2sc3c(c2c2nc(-c4cc(-c5ccccc5)nn4-c4ccccc4)nn12)CCC3
  30 | -8
N#Cc1ccc(C(=O)NCCc2ccccn2)cc1
  3 | -2
CCCn1c(C)cc(/C=C(\C#N)C(=O)N(C)Cc2ccc(Cl)c(Cl)c2)c1C
  4 | 8
N#C/C(C(=S)Nc1ccccc1)=C1/NN=C(N2CCOCC2)N1c1ccccc1
  85 | 40
CC(NC(=O)CN1CCc2ccccc2C1)c1ccccc1 (centres undefined)
  3 | -2
O=C(Oc1ccc(Br)cc1F)C1CC(=O)N(c2ccc3c(c2)OCCO3)C1 (centres undefined)
  34 | 15
CCCCCCOc1ccc(C(=O)OCC(=O)Nc2c(C)n[nH]c2C)cc1OC
  -4 | 12
CCOC(=O)c1sc(NC(=O)CN2C(=O)C3CC=CCC3C2=O)nc1C (centres undefined)
  0 | -4
Cc1cc(C)c2c(NC(=O)COc3ccc(Cl)cc3)n[nH]c2n1
  10 | 28
Nc1cc(C(F)(F)F)ccc1-n1cccn1
  23 | 5
Cc1cccc(C(C)C)c1NC(=O)CN1CCc2ccccc21
  44 | 29
O=C(O)CC1(CC(=O)Nc2ccc3c(c2)OCCO3)CCCCC1
  14 | 8
CCN(CC(=O)Nc1ccccc1OC)C(=O)CC1CCCC1
  12 | 6
Oc1ccc(F)c(F)c1
  16 | 11
CCN(CC)c1ccc(/C=C2\NC(=S)NC2=O)cc1
  23 | 54
CN(C)S(=O)(=O)c1ccc(C(=O)OCc2csc(Nc3ccccc3)n2)cc1
  5 | 1
CC(Oc1ccccc1F)C(=O)N/N=C/c1cnn(-c2ccccc2)n1 (centres undefined)
  14 | 3
COc1ccc(CN(C)c2nc(-c3cccnc3)nc3ccccc23)cc1OC
  13 | 6
O=C(NCc1cccs1)C1=CC=CN2CCS(=O)(=O)N=C12
  16 | 6
CC(C)[C@@H](C(=O)OCc1cc(=O)n2ccsc2n1)N1C(=O)c2ccccc2C1=O
  6 | 16
CCc1cc2c(COC(=O)c3cccc(NS(C)(=O)=O)c3)cc(=O)oc2cc1O
  30 | 10
O=C(CCc1ccc(S(=O)(=O)N2CCOCC2)cc1)NCC(F)(F)F
  15 | -2
COCCN(Cc1nc2ccccc2c(=O)[nH]1)C(=O)Cn1cnc2sccc2c1=O
  16 | 4
CCCn1c(=O)[nH]c(=O)c2c(C(=O)O)cc(-c3ccccc3)nc21
  10 | 6
N#CCSc1ncnc2ccccc12
  22 | 12
Cc1cccc2c(N=NC(=O)OC(C)(C)C)c(O)[nH]c12
  14 | 14
O=C(NC1=NCCS1)[C@H](Cc1ccccc1)N1C(=O)c2ccccc2C1=O
  16 | 0
CCN(CC(=O)Nc1ccccc1C(=O)Nc1ccccc1)CC(=O)NC1CCS(=O)(=O)C1 (centres undefined)
  2 | 4
O=C(Cn1ccc(C(F)(F)F)n1)N1N=CCC1(O)C(F)(F)F (centres undefined)
  -2 | -13
CC(C)CN(C(=O)CN1CCN(c2ncccn2)CC1)C1CCS(=O)(=O)C1 (centres undefined)
  11 | 10
CC1CCCCC1NC(=O)/C(C#N)=C/c1cccc(O)c1 (centres undefined)
  12 | 8
C=CCn1c(=S)sc2c(=O)n(CC(=O)Nc3ccc(F)cc3)cnc21
  12 | 6
CCSc1nnc(NC2=NCCC2)s1
  -1 | 2
COc1ccc(S(=O)(=O)Nc2ccc(C(=O)NCC(=O)O)cc2)cc1
  1 | -3
CC1CN(C(=O)c2ccc(C#N)cc2)CC(C)O1 (centres undefined)
  8 | 2
Cc1cc(NC(=O)COC(=O)Cc2ccsc2)no1
  11 | 10
O=C1NCCN=C1c1cc(Cl)sc1Cl
  9 | 0
CCSc1nnc(NC(=O)c2cccc(S(=O)(=O)N3CC(C)CC(C)C3)c2)s1 (centres undefined)
  -4 | -4
Cc1ccc(Cn2ccsc2=NC(=O)COC(=O)C2CC2)cc1
  20 | 12
O=S(=O)(c1cccs1)N1CCN(Cn2c(NCCO)nc3ccccc32)CC1
  4 | 3
O=C(CC1Sc2ccccc2NC1=O)OCc1nc2scc(-c3ccco3)c2c(=O)[nH]1 (centres undefined)
  20 | -8
CCSc1n[nH]c(-c2cccs2)n1
  14 | 14

# Other results:
# Sequence of screens – BmaI1 | BmaI1 counterscreen
Cc1ccc(C(=O)CSc2nnc3nc(C)cc(C)n23)cc1
  3 | -6
CC1CSC(N(C(=O)CN2C(=O)COc3ccccc32)c2ccc(Cl)cc2)=N1 (centres undefined)
  -3 | -4
CCn1c(C)nc2cc(C(=O)OCCC(F)(F)F)ccc21
  -1 | -10
CN(CC(=O)Nc1cccc2nsnc12)c1ccccc1
  4 | 5
NNC(=O)c1cccc(S(=O)(=O)Nc2ccccc2Cl)c1
  16 | -30
CCC(CC)NC(=O)c1ccc(S(=O)(=O)N2CCCCC2)cc1
  9 | 6
CCc1c(/C(C)=N/NC(N)=O)oc2ccc(C)cc12
  27 | 14
CCC1CCCCN1C(=O)COC(=O)c1c2c(nc3ccccc13)CCC2 (centres undefined)
  14 | 11
COC(=O)c1cc(COC(=O)/C=C/c2nc3ccccc3s2)oc1C
  16 | 22
Cc1nc2ccccc2nc1CSCC(=O)c1cc(C)n(C)c1C
  9 | 4
CC(C)n1c(O)c(N=NC(=O)c2ccc3c(c2)OCO3)c2ccccc21
  52 | 23
CCn1nnc2cc(C(=O)NCC(c3ccccc3OC)N(C)C)ccc21 (centres undefined)
  34 | 2
CCOc1cc(N2CCOCC2)c(OCC)cc1NC(=O)Cc1c[nH]c2ccccc12
  12 | 2
COc1cc(NC(C)C(=O)N(C)c2ccccc2)cc(OC)c1OC (centres undefined)
  8 | -2
CC1CCC2(CC1)NC(=O)N(/N=C/c1ccccc1)C2=O (centres undefined)
  5 | -2
O=C(NC1CCCCC1O)c1cccc(Cl)c1 (centres undefined)
  16 | 10
COc1ccccc1N1CCN(C(C)C(=O)N2CC(C)CC(C)C2)CC1 (centres undefined)
  20 | 8
O=C1CN(c2ncnc3sc(-c4ccccc4)cc23)CCN1
  12 | 1
O=C(CSc1nc2ncc(Cl)cc2[nH]1)c1ccc(S(=O)(=O)N2CCCC2)cc1
  26 | 8
Nc1nc(N)c2[nH]c(-c3ccccc3)nc2n1
  29 | 50
CC(C)N(C(=O)CSc1nnc2sc3ccccc3n12)C(C)C
  4 | -2
Cc1ccc2nc(NC(=O)c3cccs3)sc2c1
  24 | 10
CCc1cccc2c3c([nH]c12)C(CC)(CC(=O)O)OCC3 (centres undefined)
  8 | 22
O=C(CN1CC(=O)Nc2ccccc21)Nc1ccc(N2CCCCC2)cc1
  12 | 2
Cc1cc(C)n(CCCNS(=O)(=O)c2cccs2)n1
  14 | 4
CSc1ccc(/C=N/O)cc1
  18 | 10
CCOC(=O)C1CCN(C(=O)COC(=O)c2ccc(O)cc2)CC1
  9 | 2
CCc1cccc2c(C(=O)COC(=O)C3=NNC(=O)CC3)c[nH]c12
  9 | 7
O=C(CSc1nnc2ccccn12)c1ccc(S(=O)(=O)N2CCCCC2)cc1
  71 | 50
O=C(Cc1c[nH]c2ccccc12)OCC(=O)N1CCCC1=O
  12 | 5
CCCN(C(=O)/C=C/c1ccc(N(C)C)cc1)C1CCS(=O)(=O)C1 (centres undefined)
  37 | 24
CC(OC(=O)C1=NNC(=O)CC1)C(=O)Nc1ccc(Oc2ccccc2)cc1 (centres undefined)
  2 | 0
Clc1ncnc2sccc12
  10 | 14
COCCN(Cc1ccccc1)S(=O)(=O)c1cccc(C#N)c1
  6 | 2
O=C(NCc1cccs1)c1ccc2ccccc2n1
  8 | -1
CNC(=O)COc1ccc(C(=O)c2ccc(F)cc2)cc1
  -10 | -9
COc1cc2c(cc1OC)CN(Cc1nc3ccsc3c(=O)[nH]1)CC2
  12 | -6
CCN1CCN(C(=O)N[C@@H](C(=O)N[C@@H]2C(=O)N3[C@@H]2SC(C)(C)[C@@H]3C(=O)O)c2ccccc2)C(=O)C1=O
  10 | 32
Cc1cccc(C(N)=S)c1
  29 | 12
c1csc(-c2nnc(COc3ccc4c(c3)OCO4)o2)c1
  38 | 16

# Already shown: an excerpt of the list.
# Sequence of screens – BmaI1 | BmaI1 counterscreen
CC(C)N(C(=O)CSc1nnc2sc3ccccc3n12)C(C)C
  4 | -2
Cc1ccc2nc(NC(=O)c3cccs3)sc2c1
  24 | 10
CCc1cccc2c3c([nH]c12)C(CC)(CC(=O)O)OCC3 (centres undefined)
  8 | 22
O=C(CN1CC(=O)Nc2ccccc21)Nc1ccc(N2CCCCC2)cc1
  12 | 2
Cc1cc(C)n(CCCNS(=O)(=O)c2cccs2)n1
  14 | 4
CSc1ccc(/C=N/O)cc1
  18 | 10
CCOC(=O)C1CCN(C(=O)COC(=O)c2ccc(O)cc2)CC1
  9 | 2

# More compounds follow.
# Sequence of screens – BmaI1 | BmaI1 counterscreen
COc1cc2nc(CN(C)C3CCCCC3)[nH]c(=O)c2cc1OC
  2 | 0
OC1CCC(NCc2ccc(-c3nc4ccccc4s3)o2)CC1 (centres undefined)
  3 | 5
COc1cc(C#N)ccc1Oc1nc(CN2CCOCC2)nc2scc(-c3cccs3)c12
  14 | 8
COCc1cc(=O)oc2cc(OC)ccc12
  9 | 12
N#Cc1c(N)n[nH]c1CCCCCN=Cc1cc(Br)ccc1O
  8 | 15
O=C(Cn1cnnn1)Nc1ccccc1Cc1ccccc1
  6 | 9
CCn1c(SC(C)C(=O)NC(C)c2ccc(F)cc2)n[nH]c1=O (centres undefined)
  14 | 0
O=C(C1CC2C=CC1C2)N1CCN(c2ccccc2)CC1 (centres undefined)
  10 | 5
CC1Sc2ccc(C(=O)Oc3ccccc3C#N)cc2NC1=O (centres undefined)
  8 | 2
Cc1ccc(N(Cc2ncc(-c3ccccc3)o2)S(=O)(=O)c2ccc3c(c2)OCCO3)cc1
  10 | 2
O=C(CSc1nnc2n1CCCCC2)N1N=C(c2ccco2)CC1c1ccco1 (centres undefined)
  18 | 9
Cc1cc(-c2csc(NCc3ccccc3)n2)c(C)n1CC1CCCO1 (centres undefined)
  68 | 12

# High-throughput results as filed in PubChem BioAssay.

# An excerpt. The share of hits here may be higher or lower than overall.
